# VACV E9 pol inh = vaccinia E9 polymerase processive synthesis inhibition; normalized absorbance, % (concentration not given with the values); in vitro processive DNA synthesis, absorbance read-out; active compounds read low; some inactives read as strong as hits; 46,000 tested, 0.94% active;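 active = replicate mean up to 90% and picked by the depositor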;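 note: 100% = median of the test wells of a plate; 100 nL library stock went into each well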
# The depositor's hits bear a star. The list is partial; count on the stated rates, not on these rows.
Molecule | VACV E9 pol inh
O=c1[nH]cnc2cc(-c3ccccc3)sc12 | 101
CCOC(=O)c1c(C)n(O)c2ccc3nonc3c12 | 98
c1ccc(SCc2nnc3n2CCCCC3)cc1 | 95
CCc1cc(-c2[nH]ncc2-c2ccc(Br)cc2)c(O)cc1O | 88
O=C(C1=C(O)C(=O)N(Cc2ccccc2)C1c1cccnc1)c1ccco1 (stereo unspecified) | 95
Nc1cc(C(F)(F)F)ccc1Oc1ccc(C2CCCCC2)cc1 | 100
CN=CC1=C(O)c2ccccc2C1=O | 99
FC(F)(F)c1cccnc1N1CCN(Cc2ccc[nH]2)CC1 | 103

# 4 of these compounds, set out differently:
mol: O=c1[nH]cnc2cc(-c3ccccc3)sc12
  VACV E9 pol inh = 101

mol: CCOC(=O)c1c(C)n(O)c2ccc3nonc3c12
  VACV E9 pol inh = 98

mol: c1ccc(SCc2nnc3n2CCCCC3)cc1
  VACV E9 pol inh = 95

mol: CCc1cc(-c2[nH]ncc2-c2ccc(Br)cc2)c(O)cc1O
  VACV E9 pol inh = 88

# Next compounds.
Molecule | VACV E9 pol inh
O=C(Nc1noc2ccccc12)c1ccccc1 | 98
Cc1cccc(C(=O)OCCSc2nc(C)c3cc(C)c(C)cc3n2)c1 | 100
CCC(=O)NC(C)C(c1cccs1)N1CCN(c2ccccc2)CC1 (stereo unspecified) | 104
O=C(CSc1nnc(-c2cccc(Br)c2)o1)c1ccccc1 | 101
Cc1ccc(C=Nc2ccc(C(F)(F)F)cc2)s1 | 95
Oc1oc(-c2cccc3ccccc23)nc1C=NC1CCCCC1 | 87
c1nc(N2CCOCC2)nc(N2CCOCC2)n1 | 100
CCc1n[n+]2c(C)cc(C)nc2s1 | 104
COc1ccc(NC(=O)C2CCCCN2S(=O)(=O)c2ccc(C(C)(C)C)cc2)cc1 (stereo unspecified) | 99
CC1(C)CC(CC(=O)N2CCOCC2)(c2ccccc2)CCO1 (stereo unspecified) | 100
O=C(/C=C1\SC(=O)NC1=O)Nc1nccs1 | 95
Cc1nc2nc(-c3ccccc3)cn2nc1C | 103
CSc1scc2c1-c1nc(SCC(=O)C(C)(C)C)ncc1CC2 | 99
Cc1ccc(CN2C(=O)CSc3ccc(NC(=O)NC4CCC(C)CC4)cc32)cc1 (stereo unspecified) | 105
O=C(COC(=O)C1CCCCC1)Nc1cccc(F)c1 | 93
O=C(CSC(=O)c1ccccc1)Nc1ccc(C(F)(F)F)cc1 | 102
COc1ccccc1C1CC(=O)CC(c2ccccc2OC)S1 (stereo unspecified) | 90
N#C/C(=C/c1cccc2ccccc12)c1ccccc1 | 100
CCCc1nnc(N)s1 | 92
COc1cc2c(cc1N=Cc1cccnc1)oc1ccccc12 | 96
COc1cccc2c1cc([N+](=O)[O-])c1c(C(=O)O)cc3c(c12)OCO3 | 97
FC(F)(F)c1cnc(N2CCN(CCOCc3ccc(Cl)cc3)CC2)c(Cl)c1 | 108
Cc1ccc(NC(=O)/C=C/c2ccc(-c3ccccc3)o2)cc1 | 94
CC1CCN(C(=O)c2cc3ccccc3o2)CC1 | 93
COc1cc(C)c(N)cc1OC | 100
COc1ccc(C2C(=O)c3ccccc3C2=O)c(OC)c1 | 99
COc1ncnc(OC)c1C | 90
COc1ccccc1NC(=O)COc1ccc2oc3c(c2c1)CCCC3 | 100
CN(C(=O)c1ccc2c(=O)n3c(nc2c1)CCCCC3)C1CCCCC1 | 67*
CCOC(=O)c1cnc2c(c(C)nn2C)c1Sc1nnc(SC)s1 | 103
CC1SC(C)C(=O)N(CC(=O)NCCc2ccccc2)C1=O (stereo unspecified) | 96
COc1ccc2c(c1)CCCN2Cn1nc(COc2ccccc2)n(C)c1=S | 99
CS(=O)(=O)c1nc2ccccc2n1Cc1ccccc1F | 100
CCCCn1c2ccccc2n2cc(-c3ccc4c(c3)OCO4)nc12 | 99
COc1ccc(NC(=S)NCCc2c[nH]c3ccccc23)c(OC)c1 | 100
COc1cccc(-n2cc(C(=O)N3CC=C(c4ccccc4)CC3)c3ccccc3c2=O)c1 | 96
Cc1ccc(C(=O)Sc2ncc(C(F)(F)F)cc2Cl)cc1 | 100
Cc1ccc(-c2nc(N3CCOCC3)nc3ccccc23)cc1 | 99
CC(=O)Nc1nnc(SCc2ccc(C(F)(F)F)cc2)s1 | 100
CC(C)N1CCC2(CC1)NC(=O)c1ccccc1O2 | 111
CC(=O)Nc1ccc2c(c1)OCO2 | 103
COc1ccccc1NC(=O)Cc1coc2c(C)c(C)ccc12 | 87
CCCCc1ccc(NC(=O)C(C)CC)cc1 (stereo unspecified) | 100
CC1(C)CC(=O)C(=Cc2cn(CCC#N)nc2-c2ccc(F)cc2)C(=O)C1 | 80
COc1ccc2cc(CCNS(C)(=O)=O)c(=O)[nH]c2c1 | 101
CCN1CCN(CC(O)COc2cccc(OC)c2)CC1 (stereo unspecified) | 101
O=C(CSC(=S)N1CCCCC1)N1c2ccccc2CCc2ccccc21 | 92
Cc1cc2cc(CNC(=O)/C=C\c3ccc4c(c3)OCO4)ccc2[nH]1 | 102
c1ccc(Cn2c(C3CC3)nc3ccccc32)cc1 | 108
Cc1oc(-c2cccs2)nc1CSCC(=O)N1CCC2(CC1)OCCO2 | 98
O=C(NCc1cn2ccsc2n1)c1cccs1 | 104
CCC(=O)N1CCc2cc(S(=O)(=O)NC(CC(C)C)C(=O)N3CCC(C)CC3)ccc21 (stereo unspecified) | 96
Cc1cc2c(c(=O)o1)C1(C(=O)N(CC(=O)O)c3ccccc31)C(C#N)=C(N)O2 (stereo unspecified) | 101
CC(C)(C)c1cs/c(=N/c2ccccn2)n1-c1ccc(Cl)cc1 | 103
O=C(O)COc1ccccc1/C=C1/C(=O)Nc2ccc(Cl)cc21 | 93
Nc1ccc(Br)cc1-c1nc2ccccc2s1 | 104

# Next section
Molecule | VACV E9 pol inh
Cc1cccc(NC2CS(=O)(=O)CC2O)c1 (stereo unspecified) | 100
CN1C(=O)N(c2nnc(C(C)(C)C)s2)C(=O)C1c1ccccc1 (stereo unspecified) | 102
CN(C)c1cccc(C(=O)OCC(=O)NC2CCCCC2)c1 | 102
O=C(CSc1ccccc1)NCc1ccco1 | 108
CCOC(=O)CSc1nc2ccccc2n1C(=O)Oc1ccccc1 | 96
CCOC(=O)C1CCN(C(C)=C2C(=O)c3ccccc3C2=O)CC1 | 97
O=C(N/C(=C/c1ccccc1)C(=O)N1CCCCCC1)c1ccccc1 | 100
CCN(CC)S(=O)(=O)c1ccc(-c2cc(C(=O)OC)sc2C(F)(F)F)cc1 | 111
FC(F)(F)c1cc(Oc2ccc(-n3cccc3)cc2)cc(C(F)(F)F)c1 | 100
COC(=O)c1ccc(C(=O)OC)cc1 | 99
O=C(O)c1nsc2ccccc12 | 100
Cc1ccc2c(c1)oc(=O)n2CC(=O)c1ccccc1 | 103
O=C(COC(=O)c1sc2ccccc2c1Cl)c1ccccc1F | 100
O=C(CSc1nnc(NC(=O)c2cccs2)s1)Nc1ccccc1F | 97
CCCOc1ccc2c(C)c(CCC)c(=O)oc2c1 | 102
O=C(Nc1ccccc1)n1ccc(-c2ccc(-n3ccnc3)cc2)n1 | 94
OCCN(CCO)CC(O)Cn1c2ccccc2c2ccccc21 (stereo unspecified) | 77*
Cc1ccc(C2/C(=C(\O)c3ccccc3)C(=O)C(=O)N2CCN2CCOCC2)cc1 (stereo unspecified) | 95
O=C(O)CC(NC(=O)Cc1ccc(Cl)cc1)c1ccc(F)cc1 (stereo unspecified) | 101
O=C(Nc1ccc(Oc2ccccc2)cc1)C1CCCO1 (stereo unspecified) | 101
CCOC(=O)c1c(C)oc2cc(Br)c(OCC#N)cc12 | 102
Cc1nn(-c2ccccc2)c(C)c1C(=O)Oc1ccccc1 | 101
c1ccc(COc2cccc(-c3nnc4ccc5ccccc5n34)c2)cc1 | 98
CN(C)CCC(=O)Nc1nc(-c2ccc(Cl)cc2)cs1 | 90
O=C1CSCN1c1ccc(C(F)(F)F)cc1 | 110
CC(C)(CC(=O)O)CC(=O)N1CCN(C2c3ccccc3-c3ccccc32)CC1 | 97
CCC1CCCCN1C(=O)Cc1cn(Cc2cccc(Cl)c2)c2ccccc12 (stereo unspecified) | 102
O=C(C[n+]1ccccc1)c1cc2ccccc2oc1=O | 100
N#Cc1c(OCC(F)(F)F)ccc(Br)c1OCC(F)(F)F | 103
Cc1c(C(=O)NC2CCCC2)sc2nc(-c3ccccc3)cn12 | 88
COc1ccc2c(c1)c1c3n2CCN=C3N(C)CC1 | 58*
O=C(O)c1cc(-c2ccc(Cl)cc2)n(-c2ccc(Cl)cc2)n1 | 89

# Sorted by molecular weight (lowest first): part of the list above.
Molecule | VACV E9 pol inh
Cc1nn(-c2ccccc2)c(C)c1C(=O)Oc1ccccc1 | 101
Cc1c(C(=O)NC2CCCC2)sc2nc(-c3ccccc3)cn12 | 88
Cc1ccc(C(=O)Sc2ncc(C(F)(F)F)cc2Cl)cc1 | 100
O=C(O)CC(NC(=O)Cc1ccc(Cl)cc1)c1ccc(F)cc1 (stereo unspecified) | 101
CC(C)(C)c1cs/c(=N/c2ccccn2)n1-c1ccc(Cl)cc1 | 103
O=C(CSC(=S)N1CCCCC1)N1c2ccccc2CCc2ccccc21 | 92

# Following part
Molecule | VACV E9 pol inh
CNC(=S)N1CCc2sccc2C1C (stereo unspecified) | 98
N#CSCC(=O)n1c2ccccc2c2ccccc21 | 100
O=C(/C=C/c1cccc2ccccc12)NC1CCCCC1 | 100
CCS(=O)(=O)NCCc1cc2ccc(C)cc2[nH]c1=O | 98
CC1(C)CC2(CC(C)(C)N1)OC(=O)N(Cc1ccccn1)C2(C)O (stereo unspecified) | 100
CC(C)(C)c1ccc(C(=O)N2CCC(C(=O)NN)CC2)cc1 | 102
Cc1ccc(-c2nn(C(C)(C)C)c3ncnc(N)c23)cc1 | 100
c1cncc(CNc2nc3ccccc3n3cnnc23)c1 | 99
CCC(CO)NCC(O)Cn1c2ccccc2c2ccccc21 (stereo unspecified) | 80*
COC(=O)Cc1cc(=O)oc2cc(O)ccc12 | 89
CN(C)c1ccc(/C=C2\SC(=O)N(Cc3ccccc3)C2=O)cc1 | 100
O=C(CSc1cccc[n+]1[O-])N1CCc2ccccc21 | 96
CC(=O)Nc1nn2c(-c3ccco3)nnc2s1 | 107
Cc1cc(C)nc(NS(=O)(=O)c2ccc(NC(=O)C3(c4ccccc4)CCOCC3)cc2)n1 | 99
O=C(O)C(O)(c1ccc(Br)cc1)c1ccc(Br)cc1 | 85
COC(=O)C1=NN(c2c(C)cccc2Cl)C(=O)C1 | 101
O=C(NCCC1=CCCCC1)c1ccc(Cl)cc1 | 100
N#CC(c1ccc(Cl)cc1)c1ncc(C(F)(F)F)cc1Cl (stereo unspecified) | 99
COC(=O)C(NC(=O)Nc1ccccc1)C(C)C (stereo unspecified) | 101
CN(C)c1nc2ncnc(N)c2[nH]1 | 107
CC(Oc1ccc(Cl)cc1)c1ccc(C#N)c(=O)[nH]1 (stereo unspecified) | 85
CCN(Cc1ccccc1)C(=O)c1oc(=O)c2ccccc2c1-c1ccc(C)cc1 | 103
CCNC(=O)C1CCCc2c1[nH]c1ccc(Cl)cc21 (stereo unspecified) | 100
O=C(O)C(Sc1ncccn1)c1ccccc1 (stereo unspecified) | 103
Cc1ccc(NC(=O)COc2ncnc3ccccc23)cc1C | 98
CCOC(=O)Nc1oc2ccccc2c(=O)c1CN1CCOCC1 | 101
COC(=O)CSc1nc(-c2ccccc2)nc2c1Cc1cc(Br)ccc1O2 | 103
N#CC(c1ccccc1)c1cccc(Cl)n1 (stereo unspecified) | 105
Cc1ccc(Cn2cc(CCC(=O)O)c3ccccc32)cc1 | 76
Cc1cccc(C(=O)N(CCN2C(=O)c3ccccc3C2=O)c2cccc3ccccc23)c1 | 99
COc1cccc(-n2c(SCC(=O)Nc3ccccc3)nc3c(oc4ccccc43)c2=O)c1 | 95
N#CC1=C(N)Oc2n[nH]c(C(F)(F)F)c2C1c1cccnc1 (stereo unspecified) | 82
O=C(O)c1ccccc1NCn1nnc2ccccc21 | 100
O=S1(=O)CCC(S(=O)(=O)C2CCS(=O)(=O)C2)C1 (stereo unspecified) | 100
O=C(NCCNc1ccc2ccccc2c1)c1cccn2c(=O)c3sccc3nc12 | 98
CCC(C)c1ccc(NC(=O)COC(=O)c2ccco2)cc1 (stereo unspecified) | 101
CN1C(=O)C2C=CC=CC2N=C1SCC(N)=O (stereo unspecified) | 101
Cc1ccc(NC(=O)CC(C)N2CCCC2)cc1 (stereo unspecified) | 102
Nc1nn2cc(-c3ccccc3)nc2s1 | 99
COc1ccc(OC)c(S(=O)(=O)NCc2cccnc2)c1 | 98
Oc1oc(-c2ccc(Br)cc2)nc1C=Nc1ccccc1 | 98
O=C(Nc1ccc2c3c(cccc13)S(=O)(=O)N2)c1ccccc1 | 98
O=C(CSC1=NCCS1)Nc1ccc(Br)cc1C(=O)c1ccccc1Cl | 100
Cc1ccccc1CN1C(=O)C(O)(CC(=O)c2ccc3c(c2)CCCC3)c2ccccc21 (stereo unspecified) | 100
CCc1nc2ccccc2c2nc(NC(=O)C(F)(F)F)nn12 | 100
O=C1c2ccccc2C(=O)N1c1nccc(Br)c1Br | 96
CC1Cc2cc(S(=O)(=O)NN3CCOCC3)ccc2N1C(=O)C1CC1 (stereo unspecified) | 100
O=S(=O)(c1ccc(F)cc1F)n1nccc1-c1ccc(-c2ccc(F)cc2F)o1 | 100
COc1ccc(Cl)cc1NC(=O)COc1ccccc1 | 97
CC(C)C1C(c2ccccc2)N(C)C(c2ccccc2)CC1(O)c1ccccc1 (stereo unspecified) | 107
CC1CCN(C(=O)COC(=O)c2ccc(Cl)nc2)CC1 | 102
O=S1(=O)CCN(Cc2ccc3c(c2)OCCCO3)CC1 | 110
N#CC(C(=O)C1CCCCC1)c1nc2ccccc2s1 (stereo unspecified) | 97
CCC(=O)OC1CCC2C3CCc4cc(O)ccc4C3CCC12C (stereo unspecified) | 99
C[n+]1ccccc1-c1nc2ccccc2s1 | 101
Cc1nn(CC(=O)NCc2ccc(OC(C)C)cc2)c(=O)c2cc3occc3n12 | 105
Cc1ccccc1NC(=O)CC(C)C | 97

# Screens from PubChem BioAssay.
